Screens as filed in PubChem BioAssay.
Sa RN4220 lethal – S. aureus RN4220 growth inhibition; OD600, 16 h; inhibition, % (concentration not given with the values); actives 0.33% (n = 330,000); AID 1259311;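 active means z-score of -3 or lower and OD600 up to 0.18 on both plates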;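 further: plate controls were untreated cells for no effect and reference antibiotic for full effect; stock transfer was 100 nL into about 80 µL; one replicate is shown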
PrP UTR inh – suppresses PrP 5' UTR mRNA reporter expression. AID 488862. inhibition, % (no concentration beside the values). cell-based PrP 5' UTR mRNA reporter, plate reader. actives 0.35% (n = 340,000);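 active means every replicate at 50% or more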;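 further: 0 = median of the neutral control wells; tested in H4 reporter cells; numbers are from one replicate; inactives centre near -14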
BJeLR lethal – BJeLR cell viability loss. BJeLR (HRASV12) viability, CellTiter-Glo ATP luminescence, 48 h; reference of the scale not given here. inhibition, % (test concentration not listed). AID 1554. actives 0.17% (n = 300,000);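 active means replicate mean above 50%; inconclusive means above 50% but judged a plate artefact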;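 further: 50 nL library stock added to about 25 µL; numbers are from one replicate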
Bead autofluor – flagged as autofluorescent in microsphere protease counterscreen. compound autofluorescence counterscreen, microsphere flow cytometry; hits give high values. fluorescence intensity (no concentration beside the values). actives 3.1% (n = 360,000). AID 624483;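 active means at least 3 SD above the mean of all compounds, about 16000 in these data; inconclusive means too few beads counted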;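 further: 100 nL of 1 mM stock went into each well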
Mtb hypoxia rep – Mtb hypoxia fluorescent reporter inhibition; M. tuberculosis hypoxia-regulated fluorescent reporter, fluorescence; fluorescence inhibition, % (test concentration not listed); actives 0.1% (n = 300,000);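 active means 35 to 45% if threefold the growth effect, above 45% if 1.5-fold the growth effect; inactive means the rest, general growth blockers included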;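 further: wells of about 50 µL received 100 nL stock; 0% = vehicle wells and 100% = reference inhibitor wells; whole bacteria with a GFP reporter of the hypoxia response; strong numbers were not always called active; many hits fall short of the cut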
ugtP null kill – kills S. aureus RN4220 lacking UgtP; actives 0.54% (n = 330,000); AID 1259309; S. aureus RN4220 ugtP deletion, OD600 growth, 16 h; some inactives read as strong as hits; growth inhibition, % (test concentration not listed);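 active means z-score under -3 and OD600 up to 0.15 on both plates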;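 further: plate controls were untreated wells for no effect and antibiotic for full effect; wells of about 80 µL received 100 nL stock; the first replicate is given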
Mtb hypoxia rep growth – also measured in Mtb hypoxia rep; calls as there; growth inhibition, %; measured here: M. tuberculosis growth (absorbance);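 0% = vehicle and 100% = reference antibiotic; read after six days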
* = called active by the depositor; ? = inconclusive; . = not tested or not shown; & = joins results of further samples.

no.	SMILES	Sa RN4220 lethal	PrP UTR inh	BJeLR lethal	Bead autofluor
1	CCN(CC(=O)N1CCN(c2ccccc2)CC1)S(=O)(=O)c1ccc(C)cc1	1.3	-26	-1	2444
2	c1cn(CCCNC2CCCCCCC2)cn1	1.6	-16	3	3704
3	Cc1nn(C)c(C)c1/C=N/N=C1\CCC2C3CCc4cc(O)ccc4C3CCC12C (stereo not drawn)	.	-6	3	2407
4	COc1cccc(N2C(=O)CC(N3CCC(C(N)=O)(N4CCCCC4)CC3)C2=O)c1 (stereo not drawn)	5.8	-15	5	26152*
5	Cc1nc2ccc(NC(=O)c3ccc(Br)o3)cc2s1	0.1	-56	-4	4510
6	CCc1nc2n(n1)C(O)c1cc([N+](=O)[O-])ccc1S2 (stereo not drawn)	5.1	-23	1	6081
7	Cc1nnc2n(Cc3ccccc3)c(=O)c3c4c(sc3n12)COC(C(C)C)C4 (stereo not drawn)	-7.0	-7	-2	2812
8	CC1(C)Cc2c(C#N)c(SCc3nc4ccccc4[nH]3)nc(N3CCOCC3)c2CO1	-13	-14	6	5093
9	COc1ccc2oc(=O)c(C(C)=O)cc2c1	5.5	5	2	5639
10	NNC(=O)CCc1nc2ccc(O)cc2[nH]1	.	-12	-8	3464
11	CC1CCCCC1NCC(=O)Nc1ccccc1-c1ccccc1 (stereo not drawn)	4.8	-5	.	4941
12	Clc1ccc(-c2nnc(-c3cccc4ccccc34)o2)cc1	-5.0	-91	.	3527

no.	Mtb hypoxia rep	Mtb hypoxia rep growth	ugtP null kill
1	14	4	1
2	-13	-5	0
3	.	.	.
4	-1	-1	4
5	-11	8	-9
6	11	-2	4
7	14	20	-11
8	.	.	8
9	2	10	1
10	.	.	.
11	.	.	-8
12	.	.	-15

Next part
no.	SMILES	Sa RN4220 lethal	PrP UTR inh	BJeLR lethal	Bead autofluor
13	Cc1ccc(S(=O)(=O)N(C)C)cc1NC(=O)C(C)[N+]12CCN(CC1)CC2 (stereo not drawn)	-1.0	-34	5	4182
14	O=C(NCc1ccccc1Cl)c1ccc2nnsc2c1	-0.2	-20	0	6487
15	O=C(N1CCN(c2cccc(Cl)c2)CC1)C1(c2cccs2)CCOCC1	11	-18	-6	8040
16	O=C1OC(Nc2nc(-c3ccc(F)cc3)cs2)c2ccccc21 (stereo not drawn)	0.6	.	3	4294
17	C[C@H](NC(=O)c1nc[nH]c1C(=O)N[C@@H](Cc1ccccc1)C(=O)OCc1ccccc1)c1ccccc1	.	-10	9	3429
18	Cc1cc(S(=O)(=O)N2CCN=C2c2ccccc2)c(C)cc1Cl	15	-11	-8	2098
19	CCOc1ccc(NC(=O)CSc2nncn2C)cc1	0.0	8	-9	3760
20	COC(=O)C1=C(c2ccc(-c3ccccc3)c(F)c2)CC2CCC1N2C(=O)N1CCC(O)CC1 (stereo not drawn)	8.1	.	.	.
21	Cc1sc2ncnc(N3CCC(C(=O)N(C)CC(=O)Nc4ccc(Cl)c(C(F)(F)F)c4)CC3)c2c1C	-15	-12	-3	7420
22	CNC(=O)NC(=O)C(C)N1CCN(C/C=C/c2ccccc2)CC1 (stereo not drawn)	2.7	-2	12	5113
23	CC(=O)CCc1ccccc1	3.3	-8	.	5172
24	Cc1c(O)ccc(-c2[nH]ncc2-c2nc3ccccc3s2)c1O	0.2	-6	0	2869

no.	Mtb hypoxia rep	Mtb hypoxia rep growth	ugtP null kill
13	4	9	12
14	.	.	8
15	-2	-8	19
16	-3	11	6
17	.	.	.
18	7	11	4
19	-5	7	2
20	10	10	1
21	4	0	-26
22	4	2	-2
23	.	.	-6
24	-4	-1	-18

Part of the list above, reduced to PrP UTR inh, Mtb hypoxia rep growth and Sa RN4220 lethal.
| no. | molecule | PrP UTR inh | Mtb hypoxia rep growth | Sa RN4220 lethal |
| --- | --- | --- | --- | --- |
| 22 | CNC(=O)NC(=O)C(C)N1CCN(C/C=C/c2ccccc2)CC1 (stereo not drawn) | -2 | 2 | 2.7 |
| 23 | CC(=O)CCc1ccccc1 | -8 | . | 3.3 |

(further entries)
no.	SMILES	Sa RN4220 lethal	PrP UTR inh	BJeLR lethal	Bead autofluor
25	O=C(COc1ncnc2ccc(Br)cc12)NCc1ccco1	-1.4	-11	-3	5323
26	CS(=O)(=O)Cc1cccc(C(=O)NN(c2ccccc2)c2ccccc2)c1	4.1	-2	-2	6074
27	Cc1cccc(-c2c3c(=O)n(C)c(=O)n(C)c3cn2-c2ccc(O)cc2)c1	3.6	-10	-10	20937*
28	COc1ccc(/C=c2\s/c(=C/C(=O)c3ccc(C)cc3)[nH]c2=O)cc1OC	.	7	-1	3183
29	c1ccc(Cn2c(CNc3nc4ccccc4n3CCN3CCCCC3)nc3ccccc32)cc1	-17	-27	3	3736
30	CC(C)Oc1ccc(C(=O)O)c(C(=O)O)c1	2.6	-36	-18	25281*
31	CCNCCNc1ccc([N+](=O)[O-])c2cccnc12	1.1	-8	0	4729
32	CN(C1CCCCC1)C(CNS(=O)(=O)c1ccc(Cl)cc1)c1ccccc1 (stereo not drawn)	1.1	-4	-10	5431
33	COc1ccc(N2CCN(C(=O)CSc3nc4nc(C)cc(C)n4n3)CC2)cc1	-0.5	-17	.	3655
34	CCOC(=O)C1CCCN(CCC(=O)Nc2ccccc2C)C1 (stereo not drawn)	4.8	-26	4	4406
35	O=C(OCC(=O)c1c[nH]c2ccccc12)c1ccco1	4.8	-60	5	3531
36	Cc1cccc(Oc2coc3cc(OC(=O)c4cncc(Br)c4)ccc3c2=O)c1	4.7	-11&-8	2	2575

no.	Mtb hypoxia rep	Mtb hypoxia rep growth	ugtP null kill
25	6	-5	-1
26	1	-5	-3
27	-10	-3	21
28	.	.	.
29	18	8	-27
30	5	5	4
31	10	13	4
32	-3	3	2
33	-9	8	4
34	14	9	1
35	.	.	13
36	13	12	6

(more compounds)
no.	SMILES	Sa RN4220 lethal	PrP UTR inh	BJeLR lethal	Bead autofluor
37	COC(=O)c1ccc(C[n+]2ccccc2)cc1	4.7	-2	-1	.
38	CC(=O)N1CN2CN(C1)CN(C(C)=O)C2	-2.7	-29	-2	1906
39	CC(NCc1nc2ccccc2n1C)C12CC3CC(CC(C3)C1)C2 (stereo not drawn)	11	-4	-25	3127
40	C=CCn1c(C(CCC(C)C)CC(C)(C)O)n[nH]c1=S (stereo not drawn)	4.6	-2	-3	24772*
41	CCN(CC)C(=O)CN1C(=O)c2cccc3cccc(c23)C1=O	0.9	-23	0	4318
42	CCC(C)NC(=O)Cn1c(-c2ccccc2)cc(C(C)=O)c1C (stereo not drawn)	0.0	-15	3	2496
43	CNC(=O)c1c(C)noc1C	-0.9	-22	2	4596
44	COC(=O)CSc1n[nH]c(=S)s1	-0.5	-31	4	3633
45	Cc1ccc(NC(=O)C2CCCN(S(=O)(=O)c3cnc[nH]3)C2)c(Br)c1 (stereo not drawn)	5.5	73*	1	5050
46	CCCCN(C(=O)c1ccccc1F)c1c(N)n(CCC)c(=O)[nH]c1=O	1.5	-5	-10	5649
47	CCOC(=O)Nc1ccc2c(COC(=O)CN(C)S(=O)(=O)c3ccc(C)cc3)cc(=O)oc2c1	7.5	-14	2	3173
48	Cc1ccccc1Sc1ncnc2onc(C)c12	1.8	-21	0	3718

no.	Mtb hypoxia rep	Mtb hypoxia rep growth	ugtP null kill
37	8	-5	8
38	-6	1	-3
39	5	3	-1
40	-6	-2	-2
41	-5	6	-5
42	-1	9	2
43	3	-5	4
44	-5	-12	-2
45	.	.	-11
46	8	2	-3
47	-14	8	1
48	.	.	3

Following part.
no.	SMILES	Sa RN4220 lethal	PrP UTR inh	BJeLR lethal	Bead autofluor
49	Cc1ccc(C)c(-n2c(CNC(=O)c3ccco3)nnc2SCC(=O)Nc2nnc(C)s2)c1	16	-17	-6	6157
50	CC(=O)NC1C(OCc2ccccc2)OC(COC(C)=O)C(OC(C)=O)C1OC(C)=O (stereo not drawn)	-2.2	-15&-18	-2	2433
51	O=C(NCCC1=CCCCC1)c1ccc(=O)oc1	7.3	-11	5	?
52	COc1ccc(N2CCN(C(c3ccc4ncccc4c3)c3nnnn3C(C)C)CC2)cc1 (stereo not drawn)	5.6	-3	-9	3798
53	CCN(CC)C(=O)C1=C(C)Nc2nnnn2C1c1cccnc1 (stereo not drawn)	-1.1	-13	-10	2784
54	O=C(NCc1cccnc1)C1CCCCN1S(=O)(=O)c1ccc(F)cc1 (stereo not drawn)	7.1	-15	4	6002
55	Cc1ccc(C(=O)Nc2c(C)n(C)n(-c3ccccc3)c2=O)cc1	3.0	-31	-7	4059
56	O=C(NC1CC2CCCC(C1)N2Cc1ccccc1)c1cccc(Cl)c1 (stereo not drawn)	-2.6	-22	-4	3000
57	COc1ccc(NC(=O)CSCC(=O)Nc2ccccc2N2CCCCC2)cc1	3.2	0	1	5537
58	O=C(/C=C/c1ccco1)NC(=S)Nc1cc(C(F)(F)F)ccc1N1CCOCC1	.	-21	-6	2378
59	CC(=O)Nc1ccc(NCc2ccc(C)s2)cc1	6.1	-4	-3	3902
60	CC(C(=O)NCCc1c[nH]c2ccccc12)C1C[C@@]1(C)C(NC(=O)OCc1ccccc1)c1ccccc1 (stereo partly drawn)	-7.9	.	.	.

no.	Mtb hypoxia rep	Mtb hypoxia rep growth	ugtP null kill
49	2	7	17
50	10	5	-4
51	13	2	18
52	0	-6	0
53	.	.	0
54	-1	8	3
55	8	-5	2
56	6	5	9
57	-1	0	-1
58	.	.	.
59	9	0	7
60	2	9	-13

5 entries already listed, ordered by molar mass, largest number first:
no.	SMILES	Sa RN4220 lethal	PrP UTR inh	BJeLR lethal	Bead autofluor
52	COc1ccc(N2CCN(C(c3ccc4ncccc4c3)c3nnnn3C(C)C)CC2)cc1 (stereo not drawn)	5.6	-3	-9	3798
58	O=C(/C=C/c1ccco1)NC(=S)Nc1cc(C(F)(F)F)ccc1N1CCOCC1	.	-21	-6	2378
34	CCOC(=O)C1CCCN(CCC(=O)Nc2ccccc2C)C1 (stereo not drawn)	4.8	-26	4	4406
2	c1cn(CCCNC2CCCCCCC2)cn1	1.6	-16	3	3704
37	COC(=O)c1ccc(C[n+]2ccccc2)cc1	4.7	-2	-1	.

no.	Mtb hypoxia rep	Mtb hypoxia rep growth	ugtP null kill
52	0	-6	0
58	.	.	.
34	14	9	1
2	-13	-5	0
37	8	-5	8

(list continues)
no.	SMILES	Sa RN4220 lethal	PrP UTR inh	BJeLR lethal	Bead autofluor
61	COCCCNC(=O)CN(c1cc([N+](=O)[O-])ccc1OC)S(C)(=O)=O	4.4	-13	-3	2230
62	CCC1NC(=O)c2ccccc2N1c1cccc(Cl)c1 (stereo not drawn)	2.3	-5	-1	3161
63	CC1(C)N([O-])C2=C(CCCC2)[N+]1=O	4.0	-16	5	4646
64	C=CCn1c(C)cc(-c2csc(NC(=O)C3CCN(c4ncnc5sc(C)c(C)c45)CC3)n2)c1C	8.8	-14	.	2957
65	Cc1cccc(NC(=O)c2cc3c(=O)n4ccccc4nc3n(CC(C)C)c2=N)c1	3.0	-18	5	6244
66	Cc1ccc(NS(=O)(=O)c2coc(C(N)=O)c2)cc1F	4.7	-5	-6	4441

no.	Mtb hypoxia rep	Mtb hypoxia rep growth	ugtP null kill
61	8	9	2
62	-3	-9	-5
63	-2	12	9
64	-1	4	7
65	2	-5	12
66	.	.	3
